gsp ag: agonists of gsp mutant (McCune-Albright syndrome); Potency, µM (series often up to 76.9 µM), inactives show top-dose activation (cAMP increase), actives largely listed as activators; actives 0.13% (n = 340,000); gsp mutant cells, cAMP HTRF, 30 min; control for the full effect not named in the record; active = well fitted activation curve with a large enough effect; inconclusive = small, poorly fitted or top-dose-only effect, or another doubt; inactive = no such curve, though single readings can be large or run the other way; cell line not stated here;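 further: phosphodiesterase inhibitor Ro 20-1724 added with compounds to block cAMP breakdown; potency means the concentration at half of the fitted maximal effect; nearly all actives have a fitted effect of over 60% in size; about a fifth of the inactives were tested at one dose only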
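Cells in DMEM/10% FBS with G418 were pretreated with compounds in DMSO plus […] (300 uM stock) for 30 min at 37C. cAMP was measured by HTRF (cAMP-d2 plus anti-cAMP antibody-K) after 30 min at room temperature.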
gsp antag: antagonizes gsp, the McCune-Albright syndrome mutation | Potency, µM (highest dose often 76.9 µM), without a hit: top-dose activity change, negative = inhibition, most hits filed as inhibitors | actives 0.4% (n = 340,000) | AID 624288 | gsp-mutant cells, cAMP HTRF, 30 min; control for the full effect not named in the record; active = falling curve of any shape with a large fitted effect; inconclusive = falling curve, mostly with a smaller effect; inactive = flat or rising curve; cell line not stated here;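 further: intracellular cAMP measured with PDE inhibitor Ro 20-1724 present during compound exposure; potency means the concentration at half of the fitted maximal effect; on the % scale 0 is the no-effect control and ±100 the full control effect; nearly all actives have a fitted effect of over 65% in size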
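HTRF cAMP measurement after 30 min RT detection following 30 min, 37C compound treatment alongside […] (added as 300 uM solution) in G418-selected cells seeded at 2000/well and grown 16–24 h.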
D2 ag: agonists of human D2 dopamine receptor (beta-arrestin). P14416. DiscoveRx PathHunter D2 beta-arrestin, luminescence, 90 min; 100% = 57 uM dopamine signal. activation, % (no concentration beside the values). actives 0.084% (n = 360,000). AID 624465; in the data active = activation above about 40%; inconclusive = about 15% to 40%; inactive = below about 15%; further: compound concentration not given in the record; the text of the record calls up to 30% inactive
Target sequence (P14416 whole entry, looked up): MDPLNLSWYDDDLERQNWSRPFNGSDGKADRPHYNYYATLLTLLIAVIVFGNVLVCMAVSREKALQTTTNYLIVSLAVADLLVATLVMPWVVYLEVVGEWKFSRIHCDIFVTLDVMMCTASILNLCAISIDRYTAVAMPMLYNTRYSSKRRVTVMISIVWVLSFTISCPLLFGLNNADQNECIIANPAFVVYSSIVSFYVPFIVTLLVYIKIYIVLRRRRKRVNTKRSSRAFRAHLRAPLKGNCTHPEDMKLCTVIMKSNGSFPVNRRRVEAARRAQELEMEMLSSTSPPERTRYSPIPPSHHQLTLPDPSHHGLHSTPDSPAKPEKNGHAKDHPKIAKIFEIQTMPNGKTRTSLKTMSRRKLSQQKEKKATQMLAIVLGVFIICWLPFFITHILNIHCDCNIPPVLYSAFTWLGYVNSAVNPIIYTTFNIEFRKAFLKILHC
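Agonist mode: compounds alone added to overnight-plated D2 PathHunter cells for 90 min at 37 C, with 57 uM final dopamine (EC100) defining full response. Beta-arrestin recruitment detected by chemiluminescent reagent, read after 1 h at ambient temperature.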
Six1-Eya2 inh: Six1/Eya2 interaction inhibition; activity change, % (concentration not given with the values); actives 0.56% (n = 360,000); AID 651725; AlphaScreen GST-Six1/His-Eya2 binding, biochemical; stronger effect = lower value; control for the full effect not named in the record; Q15475+O00167; in the data active = activity change below about -65%; inconclusive = about -30% to -65%; inactive = above about -30%; further: on the % scale 0 is the no-effect control and ±100 the full control effect
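Six1/Eya2 binding was read as AlphaScreen signal after compounds were pinned into GST-Six1 plus His-tagged Eya2 (5X stock 250/500 nM) in pH 8.0 Tris/NaCl/TCEP buffer, beads added, then incubated 1 h, 37 C, dark.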
CtBP-E1A inh: CtBP/E1A binding inhibition; AlphaScreen GST-E1A/His-CtBP binding, 1536-well; stronger effect = lower value; control for the full effect not named in the record; activity change, % (concentration not given with the values); actives 0.49% (n = 340,000); AID 651724; in the data active means activity change below about -65%; inconclusive means about -30% to -65%; inactive means above about -30%; further: on the % scale 0 is the no-effect control and ±100 the full control effect
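AlphaScreen with 125 nM GST-E1A and 125 nM His-CtBP (5X stocks) in Tris pH 8.0, 300 mM NaCl, BSA, Tween 20, TCEP. Compounds preincubated 2 h at 37 deg C, then glutathione donor/nickel acceptor beads added for 1 h at 37 deg C in dark.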
D2 potentiator: potentiates the human D2 dopamine receptor allosterically; P14416; DiscoveRx D2 beta-arrestin cells, luminescence, 90 min; 100% = 57 uM dopamine signal; actives 0.23% (n = 360,000); AID 624464; potentiation, % (no concentration beside the values); active = potentiation of 50% or more; inconclusive = 30% to 50%; inactive = 30% or less;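 further: compound concentration not given in the record; tested on top of an EC20 dose of dopamine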
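PathHunter D2 cells, attached overnight at 37 deg C, received compound in DMSO plus dopamine at EC20 (50 nM final) for 90 min at 37 deg C. Beta-arrestin recruitment was read as luminescence after 1 h with detection reagent at ambient temperature.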
* marks the source's active call; other numbers are inactive results; ? = inconclusive; nt = no result given; [ ] = dose if it differs, or a comment.

Fields – gsp ag	gsp antag	D2 ag	Six1-Eya2 inh	CtBP-E1A inh	D2 potentiator
[1] O=C(CCn1c(=O)sc2ccccc21)NCc1ccc2c(c1)OCO2
 : -1%	10%	-2.3	1	-2	-19
[2] Cc1ccc(-n2c(SCC(=O)NCCN3C(=O)CSC3=O)nnc2-c2ccccc2F)cc1
 : 0%	-4%	-0.7	-2	-3	-13
[3] CCNC(=S)NNC(=O)c1csc(C(C)C)c1
 : -4%	12%	-4.8	2	-5	1
[4] CCOCCCNC(=O)C(NC(=O)c1ccc(NC(C)=O)cc1)c1ccccc1 (stereo not drawn)
 : -6%[15.4 µM]	13%	2.9	-5	3	-4
[5] CC(C)N1CCN(Cc2cc(F)ccc2-n2cccn2)CC1CCO (stereo not drawn)
 : -1%[15.4 µM]	1%	-5.9	4	-12	-5
[6] CC(C)C(OC(=O)c1cccs1)C(=O)NC1CCCCC1 (stereo not drawn)
 : -3%	-8%	-1.7	6	15	-3
[7] O=C(O)C1CC2C3CC(C(=O)O)C(C3)C2C1 (stereo not drawn)
 : -4%[15.4 µM]	10%	-1.7	-1	5	3
[8] CCOC(=O)CSc1nc2ccc(Nc3nc(N4CCOCC4)nc(N4CCOCC4)n3)cc2s1
 : -16%	-14%	-3.4	-1	0	-2
[9] COc1cc(Cl)c(NS(=O)(=O)c2c(C(=O)N3CCCC3)c(C)n(C)c2C)c(OC)c1
 : ?	2%	-3.7	-6	1	-6
[10] O=C(c1cc(-c2ccccc2)on1)N1CCCc2ccccc21
 : -3%	-29%	-3.5	3	nt	-7
[11] CC(C)c1ccc2[nH]c(O)c(N=NC(=O)c3ccc(CSc4nncn4C)cc3)c2c1
 : -3%	7%	-1.6	16	13	-4
[12] COc1ccc([C@H]2[C@@H]3C=CCC[C@@]3(C)C(=O)N2Cc2ccccc2)cc1Cl
 : nt	-12%	-1.2	-5	-7	-3
[13] CC(NC(=O)COC(=O)COc1ccc(Cl)cc1)c1ccccc1 (stereo not drawn)
 : 1%	10%	0.2	6	6	-3
[14] Cc1c(Cl)cnc(NC(=O)COC(=O)CCC(=O)c2cccs2)c1Cl
 : 1%[15.4 µM]	9%	0.0	-3	-22	-4
[15] O=C(Nc1cn(-c2ccccc2)nc1-c1ccccc1)c1ccccc1
 : -7%[15.4 µM]	?	-2.0	3	-4	-23

Single records, as listed above. Order of screens: gsp ag, gsp antag, D2 ag, Six1-Eya2 inh, CtBP-E1A inh, D2 potentiator
Profile of `CC(C)C(OC(=O)c1cccs1)C(=O)NC1CCCCC1` (stereo not drawn) : -3%, -8%, -1.7, 6, 15, -3
Profile of `O=C(O)C1CC2C3CC(C(=O)O)C(C3)C2C1` (stereo not drawn) : -4%[15.4 µM], 10%, -1.7, -1, 5, 3
Profile of `COc1cc(Cl)c(NS(=O)(=O)c2c(C(=O)N3CCCC3)c(C)n(C)c2C)c(OC)c1` : ?, 2%, -3.7, -6, 1, -6
Profile of `CCOC(=O)CSc1nc2ccc(Nc3nc(N4CCOCC4)nc(N4CCOCC4)n3)cc2s1` : -16%, -14%, -3.4, -1, 0, -2

The results go on:
Fields – gsp ag	gsp antag	D2 ag	Six1-Eya2 inh	CtBP-E1A inh	D2 potentiator
[16] Cc1ccc(-n2cc(C(=O)O)c(=O)cc2C)c(C)c1
 : -32%[inhibitor]	7%	-0.1	0	9	-3
[17] CC1CC(C)CN(S(=O)(=O)c2cccc(C(=O)N3C(=O)c4cccc(N)c4C3=O)c2)C1 (stereo not drawn)
 : -7%[15.4 µM]	2%	-4.9	-8	1	-4
[18] COc1ccc(CNC(=O)c2ccc(-c3ccccc3)cc2)cc1OC
 : 29%	-10%	-3.1	-3	-15	-3
[19] O=C(CCCN1C(=O)/C(=C/c2ccccc2Cl)SC1=S)NNC(=O)c1cccnc1
 : -1%	-14%	-4.1	-21	?	-10
[20] CCC(Oc1ccccc1)C(=O)N1CCC(C(N)=O)CC1 (stereo not drawn)
 : -67%[inhibitor]	-1%	-0.6	-1	3	-1
[21] CCOC(=O)C1CC=C(Cl)CC1C(=O)Nc1nccs1 (stereo not drawn)
 : ?	9%	2.9	7	4	4
[22] Cc1ccc(S(=O)(=O)N2CCCC(C(=O)NC3CCCC3)C2)cc1Cl (stereo not drawn)
 : 9%[15.4 µM]	7%	-13	8	5	-5
[23] COc1ccccc1-c1cc(C(=O)N2CCN(c3ccc(F)cc3)CC2)no1
 : -33%[inhibitor]	-5%	-1.8	-2	1	-10
[24] Nc1ccc(-c2c3ccc(=O)cc-3oc3cc(O)ccc23)c(C(=O)O)c1
 : 30%	-5%	-12	4	-6	-29
[25] CCCCCC(=O)N1C[C@@H](O)[C@H](n2cc(COC(=O)c3ccccc3)nn2)C[C@@H]1c1ccc(OC)cc1
 : -46%	nt	-0.7	-5	2	8
[26] CCCc1cc(=O)[nH]c(SCC(=O)NN(c2ccccc2)c2ccccc2)n1
 : -4%	-20%	0.0	-1	-1	2
[27] O=C(CC1Nc2ccccc2NC1=O)NCC1COc2ccccc2O1 (stereo not drawn)
 : 2%	6%	-5.0	3	1	-25
[28] COc1ccccc1NC(=O)N1CCN(c2cc(-c3ccccc3)nc3ncnn23)CC1
 : 26%	?	5.5	-16	-19	-3
[29] Cc1ccc(-c2cc(C(F)F)n3ncc(C(=O)N4CCCCC4c4cccnc4)c3n2)cc1 (stereo not drawn)
 : -10%[15.4 µM]	-2%	-1.5	2	2	-13
[30] O=C1OC(c2ccc(Br)cc2)=N/C1=C\N1CCCCC1
 : 22%	18%	-0.6	-3	-9	-1
[31] O=C(C(=O)c1cc(Br)ccc1O)c1cc(Br)ccc1O
 : -45%[inhibitor]	?	0.7	-13	-21	-3
[32] Cc1cc(C)c2nc(SCCC#N)nc(C)c2c1
 : 0%	?	-2.3	-1	0	-5
[33] Cc1cc(C)cc(OCC(=O)Nc2cc(C)on2)c1
 : 6%	6%	3.7	5	6	-1
[34] Cn1c(Cn2c(=O)sc3ccccc32)nnc1SCc1ccccc1
 : -30%[inhibitor]	5%	5.0	6	10	0
[35] CCOc1ccccc1N(C(=O)c1snc(C(N)=O)c1N)C(C(=O)NC1CCCC1)c1ccco1 (stereo not drawn)
 : -14%	-7%	-1.8	6	2	-10
[36] Cc1ccc(S(=O)(=O)N2CCOCC2)cc1NC(=O)COC(=O)C1CCC1
 : 7%	nt	-0.6	-4	0	-9
[37] CC(C)Oc1ccc(CNC(=S)N/N=C/c2cccnc2)cc1
 : 11%	-1%	-2.1	0	-3	-12
[38] CC(=O)c1ccc2c(c1)C1C=CCC1C(c1ccc(S(=O)(=O)N3CCOCC3)cc1)N2 (stereo not drawn)
 : -26%	-26%	9.8	-20	-9	61*
[39] Cc1cc(C)n(-c2nc(NCCCN(C)C)c3c4c(sc3n2)COC(C)(C)C4)n1
 : 6%[15.4 µM]	4%	3.1	4	-1	-18
[40] Nc1nc(-c2ccco2)nn1C(=O)c1ccc(Cl)cc1
 : 14%	10%	-2.1	-3	4	-13
[41] COc1ccc(-n2c(C)c3c(OC)cccc(=O)c3c2C)cc1
 : -23%	?	-3.9	-3	-1	10
[42] COCC(=O)NC1CCCCCC1
 : -9%[15.4 µM]	4%	-3.8	-4	-7	-5
[43] O=C(O)c1cc(NN=Nc2cccc(S(=O)(=O)O)c2)cc([N+](=O)[O-])c1
 : 14%	10%	-8.5	-6	nt	-4
[44] O=C(O)c1cccc(NC(=S)NC(=O)c2ccc3ccccc3c2)c1
 : ?	?	-4.2	0	-1	1
[45] S=C(/N=c1/sccn1Cc1ccccc1)NC1CC1
 : 5%	-10%	1.4	-9	-9	-4
[46] O=C(CN1CCN(c2ccccc2)CC1)Nc1nnc(-c2ccccc2)s1
 : 24%	14%	-3.5	13	23	-31
[47] CC(=O)c1c(C)nc2ccc(Br)cc2c1C(=O)O
 : ?	3%	3.4	-7	10	7
[48] O=C(Nc1cccc(F)c1)c1ccc(Br)o1
 : 21%	0%	-1.2	-3	nt	4
[49] COc1cccc(NC(=O)Nc2nc(SC)ns2)c1
 : -39%[inhibitor]	-24%	3.6	-7	0	-2
[50] NC(=O)c1cccc([N+](=O)[O-])c1
 : nt	5%	4.1	3	4	-6
[51] COc1ccc(N2C(=O)C3CCCN3C2c2ccccc2F)cc1 (stereo not drawn)
 : 0%	4%	-2.7	4	0	-4
[52] O=C(Nc1ccc2oc(-c3ccncc3)nc2c1)c1ccc(F)cc1
 : -5%[15.4 µM]	4%	-0.2	77	1	-9
[53] Cc1ccc(S(=O)(=O)NCCN2CCN(S(=O)(=O)c3ccccc3Cl)CC2)cc1
 : ?	-4%	-3.3	2	nt	-14
[54] Cc1cc(C)cc(NCc2cc(=O)oc3cc(-c4ccccc4)c(O)cc23)c1
 : -6%	3%	-0.6	-8	2	-8
[55] Cc1cc(C)c(S(=O)(=O)n2cnc3ccccc32)c(C)c1
 : -24%	7%	-1.4	-1	10	-10
[56] CCOC(=O)N1CCN(C(=O)c2cc(OCC)c(OCC)c(OCC)c2)CC1
 : -32%	3%	-0.8	4	-17	3
[57] Cc1ccc(C(=O)n2nc(-n3cccc3)c3c(C)cc(C)nc32)cc1
 : -10%	-21%	0.6	-6	7	4
[58] CC(C)(C)c1[nH]nc2c1C(c1ccc(OC(=O)c3ccco3)cc1)C(C#N)=C(N)O2 (stereo not drawn)
 : -31%[inhibitor]	-8%	1.6	-2	5	4
[59] OCCC1CN(Cc2ccon2)CCN1CCc1ccccc1 (stereo not drawn)
 : 25%	4%	0.2	1	1	-5
[60] Fc1ccc(CN2CCCCCCC2)cc1
 : 5%	10%	-0.9	2	-2	-9
[61] CCCNC(=O)C1(C)CCN(C(=O)c2cc(C)n(C(C)(C)C)n2)C1 (stereo not drawn)
 : nt	nt	-3.5	6	3	-12
[62] O=C(CCCc1nc2ccccc2s1)N1CCN(c2ccccc2F)CC1
 : 20%	?	-3.5	-4	-6	-3
[63] Cc1nc(SCC(=O)Nc2ccccc2Cl)c2c(C)c(C)sc2n1
 : 3%	-15%	-6.1	-2	-12	-6
[64] O=C(CSc1n[nH]c(=O)n1Cc1ccco1)c1ccc(F)cc1
 : -26%	6%	-4.0	-16	-5	-8
[65] COc1ccc(OCc2cc(C(=O)NC3CCc4ccccc43)no2)c(Cl)c1 (stereo not drawn)
 : -1%	-21%	-1.4	1	9	-12
[66] CCOC(=O)/C(=N\Nc1ccc(Cl)cc1)c1csc(Nc2ccccc2)n1
 : -1%	7%	-5.7	-5	-2	-6
[67] COCC(C)NC(=S)NCCc1ccc(Cl)cc1Cl (stereo not drawn)
 : ?	6%	-4.4	-4	nt	-16
